gsp ag – agonists of gsp mutant (McCune-Albright syndrome); gsp mutant cells, cAMP HTRF, 30 min; control for the full effect not named in the record; Potency, µM (titrated, usually from 76.9 µM), for the others: at the top dose activation (cAMP increase), usual class: activators; hit rate 0.13% among 340,000; active = well fitted activation curve with a large enough effect; inconclusive = small, poorly fitted or top-dose-only effect, or another doubt; inactive = no such curve, though single readings can be large or run the other way; cell line not stated here;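 also: phosphodiesterase inhibitor Ro 20-1724 added with compounds to block cAMP breakdown; potency is read from the fitted curve at half-maximal effect; nearly all actives have a fitted effect of over 60% in size; about a fifth of the inactives were tested at one dose only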
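Cells in DMEM/10% FBS with G418 were pretreated with compounds in DMSO plus […] (300 uM stock) for 30 min at 37C. cAMP was measured by HTRF (cAMP-d2 plus anti-cAMP antibody-K) after 30 min at room temperature.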
Menin-MLL FL inh – inhibitors of human menin-MLL interaction, wild-type MLL peptide. Fluorescence polarization, fluorescein-MLL peptide displacement from menin. FP activity change, % at 61.4 µM. 290,000 tested, under 10 active; inconclusive = falling polarisation curve, or a change in total fluorescence; inactive = total fluorescence flat and polarisation flat or rising; no compound was filed as active; the % refers to the polarisation; negative = inhibition;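 also: % of control where 0% means no effect; inhibitors lower the polarisation; unlabelled MLL peptide was the positive control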
TRPML1 ag – agonists of human TRPML1 channel; Q9GZU1; TRPML1-expressing cells, Ca2+ dye fluorescence, FDSS; host cell line not named in the record; reference of the full effect not given here; activation, % (concentration not given with the values); hit rate 0.12% among 410,000; in the data active = activation above about 50%; inconclusive = about 30% to 50%; inactive = below about 30%; also: 0% is about no effect; the text of the record puts the active cut at 80%
Target sequence (Q9GZU1 whole entry, looked up): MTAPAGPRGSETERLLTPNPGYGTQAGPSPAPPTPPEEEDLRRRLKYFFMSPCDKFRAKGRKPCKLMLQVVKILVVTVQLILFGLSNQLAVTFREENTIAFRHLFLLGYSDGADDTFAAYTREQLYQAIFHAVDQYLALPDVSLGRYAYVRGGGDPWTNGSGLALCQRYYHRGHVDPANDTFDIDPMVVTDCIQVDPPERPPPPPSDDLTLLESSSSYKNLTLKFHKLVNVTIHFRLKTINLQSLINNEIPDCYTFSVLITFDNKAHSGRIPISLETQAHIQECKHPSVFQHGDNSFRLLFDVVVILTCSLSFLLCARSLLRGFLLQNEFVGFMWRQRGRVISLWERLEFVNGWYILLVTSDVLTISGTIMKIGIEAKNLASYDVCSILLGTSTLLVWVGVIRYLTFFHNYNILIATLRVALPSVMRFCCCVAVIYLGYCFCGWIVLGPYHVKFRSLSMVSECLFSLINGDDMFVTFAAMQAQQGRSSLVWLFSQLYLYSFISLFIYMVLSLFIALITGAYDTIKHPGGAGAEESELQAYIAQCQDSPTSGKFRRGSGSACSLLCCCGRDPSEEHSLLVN
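Agonist activity was taken from a 110 s kinetic Ca2+ dye read on the FDSS after pinning compounds onto TRPML1-DL cells. The cells were seeded at 1,500/well with Tet inducer, incubated about 16 h, then dye-loaded at room temperature.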
ClpP mod – qHTS Assay for Activators of ClpP; AID 651965, 2013; purified B. subtilis ClpP, FRET peptide cleavage, 20 min; Potency, µM (titrated, usually from 57.5 µM), without a hit: at the highest dose activity change, negative = active; hit rate 1.9% among 340,000; active = well fitted falling curve with a large enough effect; inconclusive = small, poorly fitted or top-dose-only effect; inactive = no such curve, though single readings can be large or run the other way; also: potency is read from the fitted curve at half-maximal effect; the source files actives as falling curves though it sought activators and does not explain the sign; nearly all actives have a fitted effect of over 65% in size; many hits overshoot -100%
Target sequence (P80244 whole entry, looked up): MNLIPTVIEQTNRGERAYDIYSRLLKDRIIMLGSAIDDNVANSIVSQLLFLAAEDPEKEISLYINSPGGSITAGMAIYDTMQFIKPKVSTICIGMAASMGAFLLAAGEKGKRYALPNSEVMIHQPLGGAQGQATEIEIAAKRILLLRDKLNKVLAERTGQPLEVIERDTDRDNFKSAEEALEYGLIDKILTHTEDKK
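Purified B. subtilis ClpP, 10 microg/mL final in Tris/HCl pH8 with KCl, BSA, glycerol and Tween-20, cleaved an Abz/nitrotyrosine-quenched decapeptide. Fluorescence (ex 320, em 430) was read at 0 and 20 min at room temperature. Delta was normalized to 5.8 microM ADEP and DMSO/no-enzyme controls.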
gsp antag – antagonists of gsp mutant (McCune-Albright syndrome); gsp-mutant cells, cAMP HTRF, 30 min; control for the full effect not named in the record; Potency, µM (series often up to 76.9 µM), for the others: top-dose activity change, negative = inhibition, actives largely listed as inhibitors; hit rate 0.4% among 340,000; active = falling curve of any shape with a large fitted effect; inconclusive = falling curve, mostly with a smaller effect; inactive = flat or rising curve; cell line not stated here;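 also: intracellular cAMP measured with PDE inhibitor Ro 20-1724 present during compound exposure; potency is read from the fitted curve at half-maximal effect; % is scaled to controls: 0 for no effect and ±100 for the full control effect; nearly all actives have a fitted effect of over 65% in size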
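G418-selected cells were plated in DMEM/10% FBS for 16-24 h at 37C, then treated with compounds plus the PDE inhibitor […] (300 uM solution added) for 30 min at 37C. Intracellular cAMP was measured by HTRF after 30 min lysis at room temperature.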
TRPML1 inh – human mucolipin-1 channel inhibition. Q9GZU1. TRPML1-inducible cells, Ca2+ dye fluorescence, FDSS; hits give low values; inhibition of EC80 agonist-evoked calcium signal. activity change, negative = inhibition, % (no concentration beside the values). hit rate 0.02% among 390,000; in the data active means activity change below about -50%; inconclusive means about -30% to -50%; inactive means above about -30%;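 also: stimulus is agonist 54-4 at its EC80 concentration; % is scaled to controls: 0 for no effect and ±100 for the full control effect; compound concentration not given in the record; the text of the record puts the active cut at -80%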
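TRPML1-DL cells, Tet-induced overnight (~16 h, 37 °C) at 1,500 cells/well, were loaded with Ca8 no-wash dye plus quencher for 45-90 min at room temperature. Compounds were pinned during FDSS kinetic reading; agonist 54-4 at EC80 (4 uM final) then added.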
* = called active by the depositor; ? = inconclusive; nt = not tested or not shown; [ ] = another dose, or the depositor's remark. Rows are unselected (roughly 2.1% active in at least one column).

No. | SMILES | gsp ag | Menin-MLL FL inh | TRPML1 ag
1 | COc1ccc(S(=O)(=O)N2CCCCCC2)cc1C(=O)N1CCN(c2ccccc2O)CC1 | -30% | nt | -0.5
2 | CC(=O)Nc1ccc2nc(-c3ccc(Br)o3)[nH]c2c1 | -18%[15.4 µM] | 3.1 | 0.3
3 | Cc1ccc(C(=O)NC(=S)NNC(=O)COc2ccccc2C)cc1 | 3%[15.4 µM] | -0.4 | 0.7
4 | CCCCC(=O)Nc1nc(-c2ccc(S(=O)(=O)N3CCOCC3)cc2)cs1 | 2% | nt | 0.8
5 | O=[N+]([O-])c1ccc(O)c(/C=N/Nc2ccc(Cl)nn2)c1 | 9%[15.4 µM] | 7.6 | 0.3
6 | COc1ccc(C(=O)NC(=S)N2CCN(c3ccccc3O)CC2)cc1 | 0% | nt | 2.7
7 | O=C(Cn1cccc1C(=O)c1ccccc1)NCc1ccccn1 | 21% | -2.9 | -0.3
8 | Nc1ccccc1N=Nc1ccccc1N | nt | -7.9 | 0.9

No. | ClpP mod | gsp antag | TRPML1 inh
1 | 2.8% | -8% | -5
2 | ? | 5% | 7
3 | -2.8% | -19% | 23
4 | 28µM* | -14% | -11
5 | -1.8% | -1% | 8
6 | -0.7% | -4% | -17
7 | 1.1% | -5% | 2
8 | -29% | -3% | 9

Screen by screen, quoted from above.
Entries 4 to 8 in TRPML1 inh, in turn: -11, 8, -17, 2, 9

Later entries:
No. | SMILES | gsp ag | Menin-MLL FL inh | TRPML1 ag
9 | C/C(N)=C(/C#N)C(=O)COC(=O)[C@@H](NC(=O)c1ccccc1Cl)C(C)C | -3% | -1.4 | 0.1
10 | O=C(Nc1ccc(N2CCOCC2)cc1)c1cccc(-n2cnnc2)c1 | -24%[15.4 µM] | nt | 0.4
11 | C/C=C\C=C\C(=O)Nc1cccc(C2=NOC3(C2)C[C@@H](C(N)=O)N(C(=O)C(c2ccccc2)c2ccccc2)C3)c1 (some centres not stated) | -17% | 10 | -0.4
12 | CN1/C(=C/C2CC(=O)N(c3ccc([N+](=O)[O-])cc3)C2=O)C(C)(C)c2ccccc21 (configuration not stated) | 7% | 12 | 1.7
13 | O=S(=O)(c1cccs1)N1CCN(c2ccccc2)CC1 | -2% | 2.5 | -0.4
14 | CC12CN3CC(c4ccccc4)(CN(C1)C3c1ccc(O)cc1)C2=O (configuration not stated) | nt | nt | -0.2
15 | CCN(CC(=O)NCc1ccc(Cl)cc1)CC(=O)NC1(C#N)CCCC1 | 8%[15.4 µM] | -5.2 | -0.7
16 | CC(C)[C@H](NS(=O)(=O)c1ccccc1)C(=O)OCC(=O)NC(=O)NC1CCCCC1 | -32%[inhibitor] | nt | 0.5

No. | ClpP mod | gsp antag | TRPML1 inh
9 | -0.9% | 2% | 2
10 | -1.2% | -16% | -2
11 | -1.6% | -10% | -15
12 | -2.5% | -1% | -23
13 | nt | 0% | 3
14 | 0.2% | nt | 17
15 | nt | 4% | -9
16 | nt | -9% | 14

Sorted by formula weight (lowest first): part of the list above
No. | SMILES | gsp ag | Menin-MLL FL inh | TRPML1 ag
13 | O=S(=O)(c1cccs1)N1CCN(c2ccccc2)CC1 | -2% | 2.5 | -0.4
9 | C/C(N)=C(/C#N)C(=O)COC(=O)[C@@H](NC(=O)c1ccccc1Cl)C(C)C | -3% | -1.4 | 0.1
12 | CN1/C(=C/C2CC(=O)N(c3ccc([N+](=O)[O-])cc3)C2=O)C(C)(C)c2ccccc21 (configuration not stated) | 7% | 12 | 1.7

No. | ClpP mod | gsp antag | TRPML1 inh
13 | nt | 0% | 3
9 | -0.9% | 2% | 2
12 | -2.5% | -1% | -23

The list goes on:
No. | SMILES | gsp ag | Menin-MLL FL inh | TRPML1 ag
17 | COc1ccccc1N1CC(C(=O)OCC(=O)c2ccc(F)cc2)CC1=O (configuration not stated) | ? | 3.0 | -0.7
18 | O=C(COC(=O)c1cc(Cl)ccc1O)NC(=O)NCc1ccccc1 | ? | nt | 1.4
19 | CCCCn1c(CCl)nc2cc(S(=O)(=O)N3CCOCC3)ccc21 | 10% | nt | 1.6
20 | Cc1ccc(-c2cc(C(=O)Nc3c(C)n(C)n(-c4ccccc4)c3=O)no2)cc1 | -25% | 11 | -0.1
21 | COc1cccc(NC(=O)CCc2nnc3ccc(N4CCN(c5cccc(OC)c5)CC4)nn23)c1 | 1% | nt | 1.8
22 | CCOC(=O)c1c(C)[nH]c(C(C)=O)c1C | 1% | -2.7 | 0.0
23 | O=C1OCCN1C(=O)[C@H]1[C@H](c2ccccc2)C(c2cccc(Cl)c2)=NN1c1ccccc1 | nt | 7.3 | -0.8
24 | CCC1(C)Cc2c(c(=O)n(-c3ccccc3)c3ncnc(N)c23)CO1 (configuration not stated) | -26% | 2.0 | 0.4

No. | ClpP mod | gsp antag | TRPML1 inh
17 | -1.6% | 9% | 6
18 | 3.7% | 1% | 11
19 | -4.9% | 2% | -11
20 | 2.2% | 6% | -3
21 | 0.1% | ? | 10
22 | -5.9% | 13% | 10
23 | 3.7% | -18% | 5
24 | 16µM* | 26% | 41

2 records picked at random from those above, as already listed:
No. | SMILES | gsp ag | Menin-MLL FL inh | TRPML1 ag
21 | COc1cccc(NC(=O)CCc2nnc3ccc(N4CCN(c5cccc(OC)c5)CC4)nn23)c1 | 1% | nt | 1.8
17 | COc1ccccc1N1CC(C(=O)OCC(=O)c2ccc(F)cc2)CC1=O (configuration not stated) | ? | 3.0 | -0.7

No. | ClpP mod | gsp antag | TRPML1 inh
21 | 0.1% | ? | 10
17 | -1.6% | 9% | 6

(next part)
No. | SMILES | gsp ag | Menin-MLL FL inh | TRPML1 ag
25 | O=C(CCNS(=O)(=O)c1ccc(Br)cc1)NCCCSc1ccccc1 | 8% | nt | 0.2
26 | Cc1nc2ccn(Cc3cccnc3)c(=O)c2cc1C(=O)N1CCN(c2ccc(F)cc2)CC1 | nt | nt | 3.1
27 | COc1ccc(OCCn2cc(/C=C(\C#N)C(=O)NCc3ccco3)c3ccccc32)cc1 | 2% | 0.6 | 0.1
28 | O=C(c1ccco1)N1CCN(c2ccc(N3CCCCC3)nn2)CC1 | -6%[15.4 µM] | nt | 0.3
29 | O=C(O)CCCN1C(=O)/C(=C\c2ccccc2OCc2ccccc2)SC1=S | -44%[inhibitor] | nt | 1.5
30 | O=C(COC(=O)CSCc1ccccc1)NCc1ccccc1 | 5%[15.4 µM] | -0.9 | 2.0
31 | Cc1ccc(C(=O)Nc2ccc(C(=O)N3CCCCC3C)cc2)cc1 (configuration not stated) | 16%[15.4 µM] | -1.9 | -0.3
32 | COc1ccc(NC(=S)N=Nc2c(O)[nH]c3ccccc23)cc1 | -11% | 2.1 | -0.5

No. | ClpP mod | gsp antag | TRPML1 inh
25 | -2.3% | -22% | -1
26 | -9.3% | nt | 14
27 | -3.0% | 3% | -2
28 | 0.1% | -1% | -8
29 | nt | ? | 1
30 | nt | 1% | -6
31 | nt | -7% | -7
32 | 2.0% | -20% | -8

More records:
No. | SMILES | gsp ag | Menin-MLL FL inh | TRPML1 ag
33 | Cc1cc(NS(=O)(=O)c2ccc(Nc3nc(-c4ccc(C)c(C)c4)cs3)cc2)no1 | -7% | -5.0 | 0.4
34 | CC1CC(C)CN(C(=O)Cn2c(-c3nonc3N)nc3ccccc32)C1 (configuration not stated) | 1% | 2.7 | 1.3
35 | O=C(NCc1ccccc1)C1=C[C@@H](c2ccc3c(c2)OCO3)C[C@@H](OCc2ccc(CO)cc2)O1 | nt | nt | 0.4
36 | CCCN1CCC(NC(=O)Nc2ccc(OC)c(OC)c2)CC1 | -6% | 1.1 | -0.3
37 | N#Cc1c(Nc2ccccc2Cl)s[nH]c1=O | 21% | 2.4 | 0.4

No. | ClpP mod | gsp antag | TRPML1 inh
33 | ? | 22µM* | 18
34 | 1.1% | -14% | 6
35 | -3.1% | -21% | 36
36 | 1.0% | 11% | -5
37 | nt | 7% | -1

One compound at a time, from the list above. Values in the order: gsp ag | Menin-MLL FL inh | TRPML1 ag | ClpP mod | gsp antag | TRPML1 inh
`O=C(NCc1ccccc1)C1=C[C@@H](c2ccc3c(c2)OCO3)C[C@@H](OCc2ccc(CO)cc2)O1` is entered as nt | nt | 0.4 | -3.1% | -21% | 36
`CCCN1CCC(NC(=O)Nc2ccc(OC)c(OC)c2)CC1` is entered as -6% | 1.1 | -0.3 | 1.0% | 11% | -5
`CC1CC(C)CN(C(=O)Cn2c(-c3nonc3N)nc3ccccc32)C1` (configuration not stated) is entered as 1% | 2.7 | 1.3 | 1.1% | -14% | 6

Source: PubChem BioAssay (National Center for Advancing Translational Sciences (NCATS))
